# LANA-H2A inh = blocks KSHV LANA binding to histone H2A/H2B. AID 2629. cell-free LANA-H2A/H2B peptide, fluorescence polarization. Q9QR71. 0.6% of 320,000 active. inhibition, % (no concentration beside the values); in the data active = inhibition mostly above about 10%, no sharp cut-off; inactive = mostly below about 6.7%;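 also: stock transfer was 7.5 nL into about 10 µL; 0% = median of vehicle wells and 100% = median of positive control wells; one replicate is shown; the record names a cut of 25% in any replicate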
# Target sequence (Q9QR71 whole entry, looked up): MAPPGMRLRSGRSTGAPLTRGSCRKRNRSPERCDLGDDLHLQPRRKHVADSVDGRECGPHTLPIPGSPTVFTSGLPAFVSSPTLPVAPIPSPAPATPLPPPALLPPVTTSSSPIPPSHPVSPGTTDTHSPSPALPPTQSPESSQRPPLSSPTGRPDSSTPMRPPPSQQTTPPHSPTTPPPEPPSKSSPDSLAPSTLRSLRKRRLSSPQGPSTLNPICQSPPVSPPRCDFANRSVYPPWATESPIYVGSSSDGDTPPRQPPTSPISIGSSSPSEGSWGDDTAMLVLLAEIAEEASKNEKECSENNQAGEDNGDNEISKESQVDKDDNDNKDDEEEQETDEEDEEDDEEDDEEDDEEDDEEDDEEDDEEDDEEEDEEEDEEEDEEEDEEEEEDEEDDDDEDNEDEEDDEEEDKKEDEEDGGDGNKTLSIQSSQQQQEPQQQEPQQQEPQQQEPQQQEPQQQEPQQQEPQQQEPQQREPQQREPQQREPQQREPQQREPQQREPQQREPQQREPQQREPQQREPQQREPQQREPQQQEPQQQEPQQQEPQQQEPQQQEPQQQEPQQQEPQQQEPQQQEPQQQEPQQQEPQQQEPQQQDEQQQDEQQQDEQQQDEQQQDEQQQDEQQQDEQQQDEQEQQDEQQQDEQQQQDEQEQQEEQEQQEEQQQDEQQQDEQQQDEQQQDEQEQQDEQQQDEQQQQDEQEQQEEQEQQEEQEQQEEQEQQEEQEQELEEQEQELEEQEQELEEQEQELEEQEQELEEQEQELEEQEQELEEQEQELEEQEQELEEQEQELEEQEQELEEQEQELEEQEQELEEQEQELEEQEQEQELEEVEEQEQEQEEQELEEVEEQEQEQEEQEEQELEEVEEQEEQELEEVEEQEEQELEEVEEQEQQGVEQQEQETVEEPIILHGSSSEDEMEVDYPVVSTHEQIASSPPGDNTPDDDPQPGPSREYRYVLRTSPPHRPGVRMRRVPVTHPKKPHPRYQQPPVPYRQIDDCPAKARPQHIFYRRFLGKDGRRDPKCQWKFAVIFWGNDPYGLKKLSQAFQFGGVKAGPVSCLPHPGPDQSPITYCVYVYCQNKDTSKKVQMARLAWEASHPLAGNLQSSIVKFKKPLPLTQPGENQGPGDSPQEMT
# Calb FLC = affects C. albicans growth with fluconazole; C. albicans CaCi-2 (fluconazole-resistant clinical isolate) + fluconazole, Alamar Blue growth, 48 h; AID 1979; growth inhibition, % (concentration not given with the values); 0.57% of 300,000 active;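 active = most replicates above 75%; inconclusive = exactly half above 75%; inactive = most below 75%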;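 also: all wells also contain fluconazole at 8 µg/ml as a sub-toxic cotreatment; 0% = median of DMSO wells and 100% = median of geldanamycin control wells; wells of about 8 µL received 7.5 nL stock; the first replicate is given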
# rRNA inh HTS = inhibitors of bacterial rRNA selective over humanized ribosomes; E. coli WT GFP vs humanized-ribosome RFP mutants, fluorescence, 24 h; stronger effect = lower value; DMSO median 0, no signal -100; GFP signal change (wild-type ribosome), % (no concentration beside the values); 1.6% of 350,000 active;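 active = significant combined selectivity score with lowered wild-type GFP, culture density cut under 30%, mutant RFP and density less affected; inactive = any of these conditions unmet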; also: one replicate is shown; some compounds called inactive have numbers as strong as hits
# Beta cell apopt = blocks beta cell apoptosis; INS-1E cytokine-induced death, ATP luminescence, 48 h; percent of positive-control rescue, neutral wells zero; protection from apoptosis, % (no concentration beside the values); 0.8% of 300,000 active; AID 435005;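 active = all replicates at 75% or more, or half of them and the mean; inconclusive = half reach 75% but not the mean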;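 also: 0% = cytokine-treated negative control wells and 100% = positive control rescue; higher means more ATP so stronger rescue from cytokine killing; wells of about 40 µL received 100 nL stock; the first replicate is given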
# A1 inh = inhibitors of the anti-apoptotic protein A1, read as caspase activation; MEF A1-2A-BIM cells, Caspase-Glo 3/7 luminescence, 3 h; percent of clofoctol response, vehicle zero; caspase activation, % (test concentration not listed); 0.066% of 330,000 active;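 active = over half of replicate activation scores above 10%, or exactly half above 10 with the replicate mean above 10; inconclusive = replicate mean below 10 yet half the replicates above 10; inactive = over half of replicates below 10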;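 also: wells of about 30 µL received 50 nL stock; many hits fall short of the cut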
# T cruzi inh = blocks replication of Trypanosoma cruzi; T. cruzi beta-gal in NIH3T3, luminescence, 90 h; AID 1885; inhibition, % (concentration not given with the values); 1.4% of 300,000 active;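 active = mean inhibition across valid replicates above about 55%, limit read from the data; inconclusive = mean below that limit but half or more replicates reach it; inactive = mean below it, under half of replicates reach it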;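 also: signal also drops with host cell toxicity which is not excluded here; 0% = plate median of DMSO wells and 100% = zero luminescence signal; higher percent means less beta-gal luminescence so fewer parasites; stock transfer was 50 nL into about 50 µL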
# Beta2AR agonist = human beta-2 adrenergic receptor agonism by FAP; response, % (no concentration beside the values); Am2.2-beta2AR cells, FAP receptor internalization, flow cytometry; reference of the scale not given here; 0.43% of 340,000 active; P07550;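 active = response above a set limit, near 3 SD of response in nonfluorescent compounds, cut at about 42% in these data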;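 also: stock transfer was 100 nL into about 11 µL; a reference agonist was the positive control; negative values mostly stem from fluorescent compounds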
# ALR inh = inhibitors of human sulfhydryl oxidase ALR; P55789; purified ALR, DTT oxidation, H2O2 HRP-luminol luminescence; inhibition, % (concentration not given with the values); 3.8% of 290,000 active;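 active = mean and each replicate at 75% or more; inconclusive = only one of the two met; inactive = neither met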;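 also: stock transfer was 7.5 nL into about 7.5 µL; 0% = neutral wells and 100% = wells with inactivated enzyme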
# rRNA inh HTS OD600 = further read-out of rRNA inh HTS, marked with its call; OD600 change, %; measured here: OD600 growth;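 optical density of the mix in the first replicate; 0 = DMSO median and -100 = no signal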
# rRNA inh HTS RFP = recorded beside rRNA inh HTS, whose call it bears; RFP signal change, %; measured here: RFP humanized mutant strains;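 first replicate; 0 = DMSO median and -100 = no signal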
# * marks the source's active call; other numbers are inactive results; ? = inconclusive; · = no result given.
SMILES,LANA-H2A inh,Calb FLC,rRNA inh HTS,rRNA inh HTS OD600,rRNA inh HTS RFP,Beta cell apopt,A1 inh,T cruzi inh,Beta2AR agonist,ALR inh
COCCNCC(=O)N1c2ccccc2Sc2ccccc21,1.5,-9,17,4,1.3,-1,-0.3,-5,-1,·
Cc1ccc(C)c(C(=O)CSc2nc(N)cc(=O)[nH]2)c1,-0.6,-6,-4,4,-4.5,·,1.8,-4,8,-1
O=CC(=O)c1ccccc1,3.1,·,0,8,-0.6,-2,0.0,·,1,-3
CCOC(=O)C(NC(C)=O)(NS(=O)(=O)c1ccccc1)C(F)(F)F (stereo not drawn),1.5,-7,·,·,·,-3,-1.6,-13,1,-4
Cc1ccc(S(=O)(=O)NCc2ccc(C(=O)NC3CCCCC3)cc2)cc1,1.5,27,0,-1,-0.7,5,1.4,-18,2,-5
Cc1cccc(CN2CCN(CC(=O)NCCCN3CCCC3=O)C2=O)c1,·,-10,·,·,·,2,0.0,-7,4,·
CCc1ccc2[nH]cc(C(=O)N3CCCCCC3)c(=O)c2c1,2.6,22,·,·,·,-7,1.7,-8,2,1
COc1ccc(/C=N/Nc2nncc3ccccc23)cc1,-0.2,50,0,-3,-2.4,15,-7.0,-32,-6,11
CCOC(=O)CCCNC(=O)COC(=O)CCC(=O)c1ccc(F)cc1,-2.4,6,·,·,·,-8,-0.4,-13,2,-4
Cc1ccc(NC(=S)N2CCN(S(=O)(=O)c3ccccc3)CC2)cc1C,6.0,-20,6,10,2.7,1,0.3,·,-2,-13
O=C1CC(N(O)c2ccccc2)C(=O)N1c1cc(Cl)cc(Cl)c1 (stereo not drawn),5.3,10,·,·,·,-5,-0.8,-8,6,28
Cc1occc1C(=O)N/N=C/c1ccc(Cl)c([N+](=O)[O-])c1,2.3,-10,6,0,-4.8,-2,0.3,-6,14,-4
COc1cccc(NC(=O)COC(=O)c2c(C)nn(-c3ccccc3)c2C)c1,-1.6,·,-6,-34,-5.9,2,-8.2,·,12,3
CN1CCN(c2ccc(NC(=O)c3cc([N+](=O)[O-])ccc3N3CCOCC3)cc2)CC1,-0.3,2,3,0,-0.6,-2,-1.8,8,-1,42
CCOC(=O)C1=C(O)/C(=C\c2ccc(OC)c(OC)c2)N=C1C,1.4,2,·,·,·,-4,0.0,-17,6,·
Cc1nnc2ccc(-c3ccc(NC(=O)Cc4cccs4)cc3)nn12,0.0,-4,5,-4,1.5,0,0.2,-4,9,-26
O=C(CCn1c(=O)c2cccn2c2ccccc21)Nc1ccc(F)cc1,1.4,3,-18,-13,2.0,2,0.2,-20,-3,-9
COc1ccccc1NC(=O)c1cc2n(n1)C(C(F)(F)F)CC(c1ccc3c(c1)OCO3)N2 (stereo not drawn),-9.4,-6,·,·,·,-9,-0.1,29,6,·
O=C(CN1CCCCC1)Nc1nnc(-c2ccc([N+](=O)[O-])cc2)s1,-0.3,-2,·,·,·,4,-0.4,?,15,·
O=C(COC(=O)c1ccccc1O)NCc1ccco1,0.4,·,·,·,·,-7,-0.6,·,-12,-8
CC(=O)Nc1nnc(SCc2ccc(C(=O)Nc3ccccc3F)cc2)s1,5.3,?,15,15,0.0,-7,0.7,-9,-1,-6
CCCN1C(=O)c2cc(C(=O)Nc3ccc(OC)cc3OC)ccc2C1Nc1ccc(OC)cc1OC (stereo not drawn),2.7,16,15,16,1.8,2,-0.4,-12,-5,9
O=c1[nH]c(=O)n(Cc2ccc(Oc3ccccc3)cc2)cc1Br,-0.1,-2,-13,-37,-3.4,6,0.7,9,3,-6
Cn1cc(CN2CCC(C(O)CCc3ccccc3)CC2)c(-c2ccccc2F)n1 (stereo not drawn),1.0,6,1,-5,-4.4,-3,0.8,-7,5,-13
O=C(NCc1n[nH]c(=O)c2ccccc12)C1CC(=O)N(c2ccc(Cl)cc2)C1 (stereo not drawn),-4.3,4,0,3,-2.3,2,0.1,-1,-1,1

# Reprinted at random: 3 entries already listed.
SMILES,LANA-H2A inh,Calb FLC,rRNA inh HTS,rRNA inh HTS OD600,rRNA inh HTS RFP,Beta cell apopt,A1 inh,T cruzi inh,Beta2AR agonist,ALR inh
COCCNCC(=O)N1c2ccccc2Sc2ccccc21,1.5,-9,17,4,1.3,-1,-0.3,-5,-1,·
O=C(NCc1n[nH]c(=O)c2ccccc12)C1CC(=O)N(c2ccc(Cl)cc2)C1 (stereo not drawn),-4.3,4,0,3,-2.3,2,0.1,-1,-1,1
O=CC(=O)c1ccccc1,3.1,·,0,8,-0.6,-2,0.0,·,1,-3

# Single records, as listed above. Values in the order: LANA-H2A inh, Calb FLC, rRNA inh HTS, rRNA inh HTS OD600, rRNA inh HTS RFP, Beta cell apopt, A1 inh, T cruzi inh, Beta2AR agonist, ALR inh
# CCOC(=O)CCCNC(=O)COC(=O)CCC(=O)c1ccc(F)cc1 as listed: -2.4, 6, ·, ·, ·, -8, -0.4, -13, 2, -4
# CCOC(=O)C(NC(C)=O)(NS(=O)(=O)c1ccccc1)C(F)(F)F (stereo not drawn) as listed: 1.5, -7, ·, ·, ·, -3, -1.6, -13, 1, -4
# CCc1ccc2[nH]cc(C(=O)N3CCCCCC3)c(=O)c2c1 as listed: 2.6, 22, ·, ·, ·, -7, 1.7, -8, 2, 1
# O=C(NCc1n[nH]c(=O)c2ccccc12)C1CC(=O)N(c2ccc(Cl)cc2)C1 (stereo not drawn) as listed: -4.3, 4, 0, 3, -2.3, 2, 0.1, -1, -1, 1

# The listing picks up, repeating the 4 entries before the break.
SMILES,LANA-H2A inh,Calb FLC,rRNA inh HTS,rRNA inh HTS OD600,rRNA inh HTS RFP,Beta cell apopt,A1 inh,T cruzi inh,Beta2AR agonist,ALR inh
CCCN1C(=O)c2cc(C(=O)Nc3ccc(OC)cc3OC)ccc2C1Nc1ccc(OC)cc1OC (stereo not drawn),2.7,16,15,16,1.8,2,-0.4,-12,-5,9
O=c1[nH]c(=O)n(Cc2ccc(Oc3ccccc3)cc2)cc1Br,-0.1,-2,-13,-37,-3.4,6,0.7,9,3,-6
Cn1cc(CN2CCC(C(O)CCc3ccccc3)CC2)c(-c2ccccc2F)n1 (stereo not drawn),1.0,6,1,-5,-4.4,-3,0.8,-7,5,-13
O=C(NCc1n[nH]c(=O)c2ccccc12)C1CC(=O)N(c2ccc(Cl)cc2)C1 (stereo not drawn),-4.3,4,0,3,-2.3,2,0.1,-1,-1,1
CN(C(=O)CSc1cc(C(=O)c2nccn2C)c2ccccc2n1)c1ccccc1,6.4,4,-21,-17,20,106*,0.7,5,16,4
COC(=O)c1[nH]c2ccc(Br)cc2c1NC(=O)Oc1ccccc1,-1.9,0,·,·,·,1,0.7,-11,43*,97*
COc1ccc(S(=O)(=O)N2CCCCC2)cc1NC(=O)C1CCCO1 (stereo not drawn),1.4,6,2,2,0.8,-11,-1.1,2,4,0
Cc1cc(C(F)(F)F)nn1C(=O)c1cccnc1Cl,2.2,-2,·,·,·,0,0.3,-16,6,-5
CCN1CCN(C(=O)Cn2ncc3c([nH]c4ccc(C)cc43)c2=O)CC1,3.5,-15,7,11,2.9,-4,-0.1,5,-2,-2
Cc1c(CC(=O)O)c(=O)oc2cc(OCc3ccc(F)cc3F)ccc12,-2.2,2,-12,-9,-1.9,-3,-1.0,-7,9,-1
COC(=O)c1ccc(CNC(=O)CSc2nnc(COc3ccccc3)n2C)o1,-4.7,1,·,·,·,-3,-0.6,-4,-3,-4
Cc1ccccc1NC(=S)NC(C)CCc1ccccc1 (stereo not drawn),7.2,-26,·,·,·,9,0.6,-3,-2,0
Cc1cnccc1CN(C)C(=O)C1CCC(=O)N(Cc2ccccc2F)C1 (stereo not drawn),-2.2,10,18,8,-0.2,1,-0.6,-18,3,-1
CCN(CC)S(=O)(=O)c1ccc(-c2nnc(SCC(=O)N3CCc4ccccc43)o2)cc1,2.4,-4,·,·,·,-11,-0.3,0,-4,-3
Cc1cccc(C)c1OCCN1C(=O)NC(C)(c2ccccc2)C1=O (stereo not drawn),2.2,26,-24,-21,1.0,-4,0.7,-28,5,-3
Cc1cc2c(c(C)c1CCO[C@@H]1O[C@H](CO)[C@@H](O)[C@H](O)[C@H]1O)C(=O)[C@@H](C)[C@@H]2O,2.9,·,1,-4,18,-9,0.1,·,6,1
O=C(NC(=S)NCc1cccnc1)c1ccccc1[N+](=O)[O-],-0.2,6,4,26,-0.5,-2,-2.7,-8,-8,6
CC1=NNC(=O)C1CC(=O)N/N=C/C(C)=C/c1ccccc1 (stereo not drawn),-3.4,0,4,11,1.3,-8,-0.6,-8,-12,94*
CCN(C(=O)COC(=O)/C=C/c1ccco1)c1c(N)n(Cc2ccccc2)c(=O)[nH]c1=O,0.0,·,5,8,3.6,0,0.8,·,-2,0
O=C(CC1Sc2ccccc2NC1=O)OCc1cc(=O)oc2cc(O)ccc12 (stereo not drawn),1.6,9,-22,-25,-1.4,2,-0.5,5,17,5
Cc1ccccc1NC(=S)Nc1cccc2cnccc12,-1.0,-4,-2,-5,12,129*,1.0,-8,-4,·
CCn1cc(C(=O)N2CCN(c3ccc(OC)cc3)CC2)c(=O)c2cc(S(=O)(=O)N3CCCCC3)ccc21,-2.3,50,3,2,0.1,7,2.9,18,6,18
Cc1nc(SCc2nc3ccccc3[nH]2)c2oc3cc(Br)ccc3c2n1,-1.1,·,-9,-4,1.2,1,-1.7,·,18,-10
CC(=O)Oc1ccc2ccccc2c1C(NC(=O)Cc1ccccc1)c1ccccc1 (stereo not drawn),-1.0,15,·,·,·,6,-0.5,12,12,-3

# An excerpt; the hit share may differ from the screen's.
